High-throughput results from PubChem.
SARS PLpro yeast: blocks SARS-CoV papain-like protease in a yeast assay. Potency, µM (doses to about 32.9 µM), inactives show at the highest dose activity, positive = growth rescue. AID 485353. actives 0.19% (n = 330,000). S. cerevisiae expressing SARS-CoV PLpro, growth rescue; control for the full effect not named in the record; active means well fitted rising curve with a large enough effect; inconclusive means small, poorly fitted or top-dose-only effect; inactive means no such curve, though single readings can be large or run the other way; further: 0% is about no effect; nearly all actives have a fitted effect of over 55% in size; growth read by luminescence after 48 h
NS1 inh: influenza NS1 inhibition | AID 2326 | Potency, µM (titrated, usually from 46.1 µM), inactives show at the top dose activity, positive = more growth | S. cerevisiae slowed by influenza A NS1, growth recovery by OD600 | actives 0.4% (n = 270,000); active means well fitted rising curve with a large enough effect; inconclusive means small, poorly fitted or top-dose-only effect; inactive means no such curve, though single readings can be large or run the other way; further: nearly all actives have a fitted effect of over 50% in size
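Read-out: OD600 growth recovery of NS1-expressing budding yeast. Cells grown overnight at 30C in -URA glucose medium, washed, resuspended and diluted 1:100 in 2% galactose assay medium, pH 6.0. Same strain lacking NS1 served as positive control.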
Cruzain inh Det: inhibitors of Trypanosoma cruzi cruzain with detergent; P25779; purified cruzain, Z-FR-AMC fluorescence, 0.01% Triton; Potency, µM, for the others: max response, negative = inhibition, actives largely listed as inhibitors; actives 0.43% (n = 200,000);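 further: plate controls were neutral wells for no effect and buffer without enzyme for full effect; nearly all actives have a fitted effect of over 40% in size; top concentration of the series not given in the record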
Target sequence (P25779 123-467 limits assumed): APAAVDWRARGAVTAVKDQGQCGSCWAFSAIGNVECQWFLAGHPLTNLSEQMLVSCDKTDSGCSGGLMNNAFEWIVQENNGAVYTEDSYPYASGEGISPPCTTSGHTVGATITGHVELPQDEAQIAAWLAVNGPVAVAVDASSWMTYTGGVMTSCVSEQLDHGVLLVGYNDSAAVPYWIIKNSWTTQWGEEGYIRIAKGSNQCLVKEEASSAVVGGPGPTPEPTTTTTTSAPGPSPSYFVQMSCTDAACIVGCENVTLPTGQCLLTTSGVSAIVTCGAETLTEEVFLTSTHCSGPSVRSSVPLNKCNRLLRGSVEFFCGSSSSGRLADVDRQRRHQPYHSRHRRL
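Enzyme 1.5 nM, Z-FR-AMC 2 uM, NaOAc 100 mM pH 5.5, DTT 5 mM, Triton X-100 0.01%; 15 min RT compound preincubation; kinetic ex360/em450, 60 s delta.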
RE007 growth inh: less growth of the S. pombe RE007 Vpr strain; S. pombe RE007 Vpr strain, BacTiter-Glo ATP luminescence, 24 h; control for the full effect not named in the record; Potency, µM (top dose mostly 92.2 µM), for the others: at the top dose activity change, negative = less growth; actives 0.21% (n = 360,000); AID 651644; active = well fitted falling curve with a large enough effect; inconclusive = small, poorly fitted or top-dose-only effect; inactive = no such curve, though single readings can be large or run the other way;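 further: on the % scale 0 is the no-effect control and ±100 the full control effect; nearly all actives have a fitted effect of over 50% in size; the assay follows cell death caused by Vpr and the record does not say whether a fall means rescue or toxicity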
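Fission yeast RE007 carrying one integrated HIV-1 vpr copy, seeded at OD 0.01 in PMG+AL medium with 23 nL pinned compound. Grown 24 h at 30 degrees; viability read by BacTiter-Glo luminescence after 5 min.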
Lassa entry inh: inhibitors of Lassa virus binding or cell entry | Lassa virus pseudotype entry inhibition, cell reporter; control for the full effect not named in the record | Potency, µM (top dose mostly 37.9 µM), inactives show at the top dose activity change, negative = inhibition, usual class: inhibitors | actives 1.2% (n = 300,000) | AID 540256; active means well fitted inhibition curve with a large enough effect; inconclusive means small, poorly fitted or top-dose-only effect, or effect the other way; inactive means flat fitted curve, though single readings scatter; tested in HEK293 cells; further: on the % scale 0 is the no-effect control and ±100 the full control effect; nearly all actives have a fitted effect of over 50% in size; luciferase read-out
StopGo reporter: FMDV 2A StopGo reporter, luciferase signal. AID 1159524. Potency, µM (series often up to 57.9 µM), for the others: top-dose signal change, negative = less light. human cells with a luciferase reporter of 2A StopGo recoding; control for the full effect not named in the record. actives 1.2% (n = 410,000); active = well fitted falling curve with a large enough effect; inconclusive = small, poorly fitted or top-dose-only effect; inactive = no such curve, though single readings can be large or run the other way; tested in HEK293T cells; further: on the % scale 0 is the no-effect control and ±100 the full control effect; nearly all actives have a fitted effect of over 45% in size; luciferase light after 4 h
Cruzain inh noDet: blocks cruzain activity in detergent-free assay; P25779; purified cruzain, Z-FR-AMC fluorescence, no detergent; Potency, µM, for inactives: max response, negative = inhibition, usual class: inhibitors; actives 2.3% (n = 200,000);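 further: plate controls were enzyme without inhibitor for no effect and buffer without enzyme for full effect; nearly all actives have a fitted effect of over 40% in size; top concentration of the series not given in the record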
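Detergent-free condition (0.00005% Triton X-100) in acetate buffer pH 5.5 with DTT. 1.5 nM enzyme and compound were pre-mixed 15 min, then 2 uM Z-FR-AMC substrate added; reaction progress from fluorescence change between first and third reads (60 s).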
Marburg entry inh: blocks Marburg virus binding to or entry into cells; Marburg virus pseudotyped entry inhibition, cell reporter; control for the full effect not named in the record; about a third of the inactives were read at about 46 µM; Potency, µM (highest dose often 37.8 µM), for inactives: at the top dose activity change, negative = inhibition, hits mostly inhibitors; actives 1.8% (n = 300,000); AID 540276; active = well fitted inhibition curve with a large enough effect; inconclusive = small, poorly fitted or top-dose-only effect, or effect the other way; inactive = flat fitted curve, though single readings scatter; tested in HEK293 cells; about a fifth of its hits are not listed in these tables; further: on the % scale 0 is the no-effect control and ±100 the full control effect; luciferase read-out
Active calls of the source: *; ? = inconclusive; / = not tested or not shown; & = joins results of further samples; [ ] = remark or other dose. Unless noted, the call rests on the fitted dose curve; in most records, active means well fitted curve in the direction sought with a large enough effect; inconclusive means small, poorly fitted or top-dose-only effect, or another doubt; inactive means no such curve, though single readings can be large; an effect the other way counts as inactive or inconclusive. Potency means the concentration at half of the fitted maximal effect.

SMILES | SARS PLpro yeast | NS1 inh | Cruzain inh Det | RE007 growth inh | Lassa entry inh | StopGo reporter | Cruzain inh noDet | Marburg entry inh
Cc1cccc(C)c1NC(=O)CNC(=O)C(NC(=O)c1ccc(C(C)(C)C)cc1)C(C)C (stereo not given) | 13% | 13% | -0.5% | 9% | ? | 0% | 2% | ?
CC(C)(C)c1cc(P(=O)(c2ccccc2)c2ccccc2)ccc1O | 0% | -1% | / | -23% | ? | 34%[activator] | / | ?
COc1ccc(OC)c(NC(=O)CSc2nc3ccccc3c3nc4ccccc4n23)c1 | 6% | 12% | -5.1% | / | / | / | -24% | /
Cn1cc(CCC(=O)N2CCCC(N3CCN(c4ccccc4F)CC3)C2)cn1 (stereo not given) | 6% | -5% | / | -4% | / | -8% | / | /
Cc1oc(-c2ccccc2F)nc1Cn1c(SCc2ccccc2F)nc2ccncc21 | / | / | -15% | / | 7%[46.1 µM] | 13% | -6% | -10%[46.1 µM]
CCOc1ccc(-n2c(=O)c3c(C)c(C)sc3n(CC(=O)c3ccccc3)c2=O)cc1 | / | / | 0.0% | / | ? | -23% | -9% | 12%[46.1 µM]
COc1ccc(C2NC(=O)NC(C)=C2C(=O)OC2CCCCC2)cc1OC (stereo not given) | 2% | -2% | / | -6% | ? | -23% | / | 0%[46.1 µM]
Cc1cc(-c2cccnc2)c(C#N)c(SCc2cccc(F)c2)n1 | -17% | -4% | 0.4% | 10% | -3% | -3% | -1% | ?
COc1ccc2nc(SCC(=O)Nc3nonc3C)[nH]c2c1 | 0% | 0% | / | 15% | 5% | 11% | / | 7%[46.1 µM]
COc1ccc(-n2c(C)n[nH]c2=O)cc1 | 4% | 27% | 8.2% | 9% | ? | 7% | 6% | 21%
CCC(=O)N1CCc2cc(S(=O)(=O)NC(CC(C)C)C(=O)Nc3ccc(CC)cc3)ccc21 (stereo not given) | / | / | -1.0% | / | -9%[46.1 µM] | 9% | -18% | -4%[46.1 µM]
Cc1ccc(CNC(=O)CCc2c(C)nc3c(c(C)nn3-c3ccccc3)c2C)cc1 | / | / | -2.5% | / | 4%[46.1 µM] | -2% | -4% | 8%[46.1 µM]
C=CCN1C=CC=C/C1=C1\SC(=S)N(C)C1=O | 5% | / | / | 3% | -8% | -1% | / | 25%[46.1 µM]
CCCC(=O)Nc1ccc(C(=O)NCC(=O)OCC)cc1 | -3% | -3% | 5.3% | 0% | -1% | 1% | 1% | 13%
Oc1ccccc1N1CCN(CC(O)COC2CCCc3ccccc32)CC1 (stereo not given) | 2% | 0% | / | -26% | / | -16% | / | /
COC(=O)c1cc2ccccc2n1S(=O)(=O)c1ccccc1 | 0% | 0% | / | 21% | ? | 9% | / | ?
COc1cccc(C(C(=O)NC2CCCC2)N(CCC(C)C)C(=O)CCC(=O)Nc2cc(C)on2)c1 (stereo not given) | -1% | 9% | / | 1% | ? | -17% | / | ?
Cc1ccccc1NC(=O)CCS(=O)(=O)c1ccc(Br)s1 | -5% | -4% | / | 10% | 9% | -25% | / | 2%[46.1 µM]
Cc1ccc(C)c(N2CCN(C(=O)Cn3ncc4c(=O)oc5ccc(C)cc5c43)CC2)c1 | / | / | -2.2% | / | 16%[46.1 µM] | 0% | -5% | -2%[46.1 µM]
Cc1nnc(SCc2ccc(F)cc2)n1NC/C=C/c1ccccc1 | 18% | -9% | -6.9% | 1% | -15% | -25% | ? | -2%
CCOC(=O)COc1ccc2c(c1)C(=O)CC1(CCCCC1)O2 | -5% | -13% | -3.9% | 6% | -1% | 15% | ? | 5%
COc1cccc(-c2nc(CS(=O)(=O)CC(=O)NCCCN3CCN(C)CC3)c(C)o2)c1 | 12% | 8% | -1.2% | 13% | 0%[46.1 µM] | -18%&-17% | -13% | 0%&0%[46.1 µM]
COC(=O)CSc1nc(-c2cccs2)ccc1C#N | -9% | -50% | -14% | -12% | ? | 67%[activator] | -21% | -12%&-12%&-12%
COc1ccc(Cl)cc1C(=O)NCc1cnn(C)c1C | 2% | 3% | 0.1% | 0% | 17% | -5% | 9% | -9%
Cc1cnccc1CN(C)Cc1cn(C)nc1-c1ccc(Oc2ccccc2)cc1 | -3% | -4% | / | -3% | -2% | ? | / | -18%[46.1 µM]

Already shown: entries from further up.
SMILES | SARS PLpro yeast | NS1 inh | Cruzain inh Det | RE007 growth inh | Lassa entry inh | StopGo reporter | Cruzain inh noDet | Marburg entry inh
Cc1cccc(C)c1NC(=O)CNC(=O)C(NC(=O)c1ccc(C(C)(C)C)cc1)C(C)C (stereo not given) | 13% | 13% | -0.5% | 9% | ? | 0% | 2% | ?
CC(C)(C)c1cc(P(=O)(c2ccccc2)c2ccccc2)ccc1O | 0% | -1% | / | -23% | ? | 34%[activator] | / | ?
COc1ccc(OC)c(NC(=O)CSc2nc3ccccc3c3nc4ccccc4n23)c1 | 6% | 12% | -5.1% | / | / | / | -24% | /
Cn1cc(CCC(=O)N2CCCC(N3CCN(c4ccccc4F)CC3)C2)cn1 (stereo not given) | 6% | -5% | / | -4% | / | -8% | / | /
Cc1oc(-c2ccccc2F)nc1Cn1c(SCc2ccccc2F)nc2ccncc21 | / | / | -15% | / | 7%[46.1 µM] | 13% | -6% | -10%[46.1 µM]

Next section:
SMILES | SARS PLpro yeast | NS1 inh | Cruzain inh Det | RE007 growth inh | Lassa entry inh | StopGo reporter | Cruzain inh noDet | Marburg entry inh
O=C(COC(=O)c1c2c(nc3ccccc13)/C(=C\c1cccs1)CCC2)Nc1ccccc1Cl | -4% | 10% | -4.2% | 8% | -13%&-13% | -24% | 32µM* | ?
Cc1ccc(-c2nnn(CC(=O)N(CC(=O)NC3CCCCC3)c3ccc(F)c(Cl)c3)n2)o1 | -8% | 2% | -1.8% | -15% | 13µM* | 13% | -7% | ?
Cc1c(NS(=O)(=O)c2ccc3[nH]c(=O)[nH]c3c2)c(=O)n(-c2ccccc2)n1C | -1% | 1% | 4.7% | 11% | ? | 13% | 6% | ?
COC(=O)c1oc2c(c1C)C(=O)CC(C)(C)C2 | -1% | -3% | / | 0% | -10% | -3% | / | 0%[46.1 µM]
CN1CCN(c2nc3c(c(=O)n(C)c(=O)n3C)n2Cc2cccc(Br)c2)CC1 | 9% | -1% | / | -5% | / | -23% | / | /
COC(=O)c1cc(NC(=O)CN2CCN(C(C)=O)CC2)cc(C(=O)OC)c1 | 3% | / | / | 19% | 3% | -9% | / | 12%[46.1 µM]
Cc1cccc(CNc2ncc(-c3cccc([N+](=O)[O-])c3)n2C)c1 | 1% | -4% | / | -11% | -2% | -15% | / | ?
Cc1nc2c(-c3ccc(F)cc3)c(C)nn2c(C)c1CCC(=O)NCc1ccc(Cl)cc1 | / | / | 0.7% | / | -18%[46.1 µM] | ? | 2% | -2%[46.1 µM]
CC(C)(C)NC(=S)NCc1ccc2c(c1)OCO2 | 18% | 10% | -1.6% | -1% | 7% | 16% | 3% | 16%
Cc1ccc(-n2c(SCc3nc4ccccc4[nH]3)nnc2-c2ccncc2)cc1 | 7% | -7% | -6.1% | -4% | 23% | -5% | -14% | ?
CCNC(=O)NC1(C(=O)N2CCC(Cc3ccccc3)CC2)CCCCC1 | 3% | 11% | / | -5% | / | -17% | / | /
COc1ccc(Cl)cc1C(=O)OCC(=O)N(CC(C)C)c1c(N)n(Cc2ccccc2)c(=O)[nH]c1=O | -1% | / | / | 23% | -4% | -19% | / | ?
CC1(C)[C@@H](O)CC[C@]2(C)C3C(O)C=C4[C@H]5C[C@@](C)(CO)CC[C@]5(C)CC[C@]4(C)[C@]3(C)CC[C@@H]12 (stereo not given in full) | 1% | 5% | / | -4% | / | ? | / | /
COc1ccc(S(=O)(=O)N2CCSC2c2ccccc2)cc1 (stereo not given) | -5% | ? | -1.8% | 12% | -14% | ? | -4% | -26%
Cc1ccc(OCCC(=O)OCC(=O)Nc2ccccc2)cc1 | -7% | -21% | / | -16% | 25%[46.1 µM] | -1% | / | -1%[46.1 µM]
CCCN(CC(=O)Nc1ccccc1C)C(=O)COc1ccc2c(c1)CCC2 | -10% | -14% | / | 0% | -2% | -10% | / | -6%
COc1cc2ncnc(Nc3ccc4c(c3)OCO4)c2cc1OC | -2% | 0% | / | -4% | / | 0% | / | /
COC(=O)c1sc2ccccc2c1C(=O)OC | -5% | -1% | 3.2% | -16% | -19%[14.3 µM] | 20% | 11% | 10%
Cc1[nH]c2ccccc2c1/C=N/Nc1nc(Nc2ccc(F)cc2)nc(N2CCOCC2)n1 | -9% | 12% | -9.6% | -2% | 8% | -17% | -1% | ?
CCOc1ccc(Nc2ncnc3onc(-c4ccc(Cl)cc4)c23)cc1 | / | / | -9.4% | / | -27%[46.1 µM] | ? | -12% | -23%[46.1 µM]
CC(NC(=O)COc1ccccc1)C(c1ccccc1)N1CCN(C)CC1 (stereo not given) | -7% | -10% | 0.4% | 3% | 1% | 0% | 2% | -1%
Cc1cc(C)n2c(SCC(=O)NCc3ccco3)nnc2n1 | -4% | -4% | 1.9% | 13% | -9% | 8% | 7% | -5%
CCCn1ccc2c(OCC(=O)NCc3ccccc3Cl)cccc2c1=O | / | / | -11% | / | ? | -26% | -21% | /
CCOc1ncccc1C(=O)OCC(=O)Nc1c(C)cccc1C | 5% | 26% | -0.4% | -7% | 0% | -6% | 8% | 10%
Cc1ccc(NC(=O)CN2C(=O)NC(C)(C)C2=O)cc1S(=O)(=O)N1CCCCCC1 | -4% | / | / | -5% | 9% | -13% | / | -18%[46.1 µM]
CC(C)CCNc1nc2c(c(=O)[nH]c(=O)n2C)n1CC(O)COC(C)C (stereo not given) | -3% | 2% | 4.5% | -18% | 0% | -3% | 6% | -13%
Cc1c(CNC2CCCCCC2)c(C(=O)O)c(C)n1Cc1ccc(F)cc1 | / | / | -1.6% | / | 8%[46.1 µM] | -24% | 6% | -17%[46.1 µM]
CCn1nc(C)c(NC(=O)/C=C/c2cnn(C)c2C)c1C | -19% | -12% | -0.8% | 11% | 2% | 24% | -8% | 18%
CC(=O)Nc1ccc(NC(=O)C2c3ccccc3Oc3ccccc32)cc1 | 2% | / | / | 2% | / | 0% | / | -5%[46.1 µM]

The order is random. About 4.5% of those tested had a hit in this group.
